ALR inh: inhibitors of human ALR sulfhydryl oxidase, primary screen, biochemical, H2O2 detection, HRP-luminol luminescence, single point. FAD-linked sulfhydryl oxidase ALR (Homo sapiens), P55789. actives 3.8% (n = 290,000). inhibition, % (no concentration beside the values). AID 485317, 2010. purified ALR, DTT oxidation;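 active = mean and each replicate at 75% or more; inconclusive = only one of the two met; inactive = neither met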;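 note: stock transfer was 7.5 nL into about 7.5 µL; 0% = neutral wells and 100% = wells with inactivated enzyme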
Target sequence (P55789 whole entry, looked up): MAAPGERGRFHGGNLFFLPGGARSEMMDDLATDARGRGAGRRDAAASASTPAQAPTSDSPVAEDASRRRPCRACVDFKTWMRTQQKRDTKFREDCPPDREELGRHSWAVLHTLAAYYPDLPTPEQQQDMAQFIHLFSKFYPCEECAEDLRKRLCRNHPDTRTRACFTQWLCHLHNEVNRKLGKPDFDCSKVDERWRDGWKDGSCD
HNF4A DNA FP: change in binding of human HNF4A to DNA, primary screen, biochemical, fluorescence polarization, FITC-DNA; Hepatocyte nuclear factor 4-alpha (Homo sapiens), P41235; 1 h; activity change, % at 10 µM; actives 0.3% (n = 360,000); AID 1224865, 2016; in the data active = activity change above about 30%, passing the limit was not always enough;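 note: controls were the assay level and a saturating level of protein; the project sought stronger binding though the title names inhibitors; some compounds called inactive have numbers as strong as hits; positive values seem to mean higher polarization but the record does not say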
Target sequence (P41235 whole entry, looked up): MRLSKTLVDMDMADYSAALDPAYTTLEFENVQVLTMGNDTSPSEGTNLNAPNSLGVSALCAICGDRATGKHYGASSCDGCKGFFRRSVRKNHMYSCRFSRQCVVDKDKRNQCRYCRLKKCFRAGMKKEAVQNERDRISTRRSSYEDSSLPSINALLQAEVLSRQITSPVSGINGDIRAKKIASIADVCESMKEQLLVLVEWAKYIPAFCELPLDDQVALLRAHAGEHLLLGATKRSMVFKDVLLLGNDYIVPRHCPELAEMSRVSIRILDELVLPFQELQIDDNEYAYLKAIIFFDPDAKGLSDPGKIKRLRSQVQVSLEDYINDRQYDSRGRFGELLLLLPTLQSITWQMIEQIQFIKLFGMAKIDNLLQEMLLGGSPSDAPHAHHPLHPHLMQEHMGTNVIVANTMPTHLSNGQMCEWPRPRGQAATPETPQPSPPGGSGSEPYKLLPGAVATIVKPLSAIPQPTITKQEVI
Vif TR-FRET: inhibitors of Vif binding to APOBEC3G peptide, primary screen, biochemical, TR-FRET, GST-Vif 1-94, biotin-A3G peptide, dose response retest (AID 1117319) | Virion infectivity factor (Human immunodeficiency virus type 1 group M subtype B (isolate … | TR-FRET GST-Vif / biotin-A3G peptide binding; higher % means a stronger effect; test concentration not given here; strong numbers were not always called active | one-dose inhibition, %; IC50 in µM for titrated hits | actives 0.57% (n = 260,000);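 active = above the screen mean plus three standard deviations and confirmed in dose response; inconclusive = results disagree or hit not tested in dose response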;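 note: Vif residues 1-94 fused to GST binding biotinylated APOBEC3G peptide 110-148; 0% = full assay without inhibitor and 100% = GST in place of GST-Vif; retest series ran down from 100 µM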
Ecoli growth: E. coli growth inhibition, primary screen, OD600 | AID 1053175, 2014 | actives 0.21% (n = 330,000) | Escherichia coli growth, 23 h; stronger effect = lower value | OD600 absorbance (test concentration not listed);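 active = OD600 absorbance below the run mean of sample wells minus 3.6 SD, in any replicate, cut at about 0.56 in these data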;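 note: stock transfer was 300 nL into about 60 µL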
AF4-AF9 inh: inhibitors of AF4 peptide binding to AF9, primary screen, biochemical, AlphaScreen, biotin-AF4 peptide, FLAG-AF9, single point | inhibition, % at 10 µM | actives 0.47% (n = 350,000) | AID 651704, 2012;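 active = every replicate reaching a set inhibition limit, whatever the replicate mean, cut at about 25% in these data; inconclusive = mean inhibition reaches that limit but some replicates miss it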;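 note: 0% = plate neutral control median and 100% = total signal loss; the record names both 10 and 1 µM as test concentration; the first replicate is given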
FGF22 binding: binders of human FGF22 protein, primary screen, FGF22 synaptogenesis inhibitor project, biophysical, thermal shift, single point | Fibroblast growth factor 22 (Homo sapiens), Q9HCT0 | recombinant FGF22 thermal shift, SYPRO orange fluorescence; percent of sucrose octasulfate shift, DMSO zero | calls only at 9.99 µM | actives 1.5% (n = 340,000) | AID 651658, 2012;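 active = melting point raised past a set limit in the mean and every replicate; inconclusive = no clear call; three in four hits are not shown here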
Target sequence (Q9HCT0 whole entry, looked up): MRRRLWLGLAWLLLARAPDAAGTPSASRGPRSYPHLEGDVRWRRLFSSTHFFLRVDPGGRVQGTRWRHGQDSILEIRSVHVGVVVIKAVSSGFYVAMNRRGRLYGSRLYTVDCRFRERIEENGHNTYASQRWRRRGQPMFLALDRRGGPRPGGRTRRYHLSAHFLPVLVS
Ecoli rRNA inh: reduced GFP signal of wild-type E. coli, primary screen, bacterial rRNA inhibitor project, GFP/RFP fluorescence, OD600, single point | E. coli WT GFP vs humanized-ribosome RFP mutants, 24 h; stronger effect = lower value; DMSO median 0, no signal -100 | GFP signal change (wild-type ribosome), % (no concentration beside the values) | actives 1.6% (n = 350,000);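 active = significant combined selectivity score with lowered wild-type GFP, culture density cut under 30%, mutant RFP and density less affected; inactive = any of these conditions unmet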; note: one replicate is shown; some compounds called inactive have numbers as strong as hits
Ecoli rRNA inh OD600: second read-out of Ecoli rRNA inh, no call of its own (marks repeat the call); OD600 change, %; measured here: OD600 growth;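 optical density of the mix in the first replicate; 0 = DMSO median and -100 = no signal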
Ecoli rRNA inh RFP: also measured in Ecoli rRNA inh; calls as there; RFP signal change, %; measured here: RFP humanized mutant strains;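 first replicate; 0 = DMSO median and -100 = no signal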
Active calls of the source: *; i = inactive; ? = inconclusive; . = not tested or not shown; & = joins results of further samples. An excerpt; rates above refer to the full screens.

no.	structure	ALR inh	HNF4A DNA FP	Vif TR-FRET	Ecoli growth	AF4-AF9 inh	FGF22 binding	Ecoli rRNA inh	Ecoli rRNA inh OD600	Ecoli rRNA inh RFP
1	c1ccc(Cn2c(SCc3cn4cccnc4n3)nnc2-c2ccco2)cc1	-5.0	2.1	23.1%	0.672	.	.	.	.	.
2	CC1(C)CC(N2CCN(c3ccccc3)CC2)=CC(=[N+]2CCCC2)C1	55.5	0.7	2.4%	0.691	.	.	.	.	.
3	O=C(Cc1ccccc1)N1CC2(C1)[C@@H](c1ccccc1)[C@H](CO)N2S(=O)(=O)Cc1ccccc1	.	.	.	.	-12.3	i	-3.0	-6.5	1.5
4	O=C(Cc1ccc(-n2cnnn2)cc1)NC12CC3CC(CC(C3)C1)C2	-10.5	0.7	-2.4%	0.773	.	.	-5.6	-15.7	2.5
5	O=C1Nc2ccccc2N(O)N1c1ccc(Cl)cc1	-4.8	-6.1	.	0.682	-2.6	i	11.1	3.4	8.7
6	COC(=O)[C@@]1(Cc2ccccc2)[C@H]2C(=O)N(Cc3ccccc3)C(=O)[C@H]2[C@H]2CN=C(SCc3ccccc3)N21	.	-0.6	0.9%	0.752	0.4	i	-13.1	-2.2	-2.2
7	COc1ccc(C2=Nn3c(nnc3-c3ccco3)SC2)cc1OC	-1.3	-0.1	3.8%	0.637	.	.	.	.	.
8	COc1cccc(S(=O)(=O)N2CC3(CN(C(=O)Nc4ccc(F)cc4)[C@@H](CO)c4[nH]c5cc(OC)ccc5c43)C2)c1	.	.	.	.	0.1	i	-1.3	-9.4	3.5
9	C[C@@H]1CN([C@@H](C)CO)C(=O)Cc2cc(NS(=O)(=O)c3cccs3)ccc2O[C@@H]1CN(C)Cc1ccc(Oc2ccccc2)cc1	.	.	.	.	2.3	i	1.1	4.0	2.2
10	Cc1ccccc1S(=O)(=O)NCC[C@@H]1CC[C@H](NC(=O)C2CCOCC2)[C@@H](CO)O1	.	.	.	.	-3.4	i	5.2	0.6	0.3
11	O=C1c2ccccc2C2(c3ccc(F)cc3)NCCN12 (centres undefined)	-13.5	1.5	8.8%	0.603	-0.2	i	12.4	5.3	0.0
12	Cc1cc(N2CCCC2=O)cc(C)c1S(N)(=O)=O	-0.2	1.0	4.2%	0.688	.	.	.	.	.
13	COc1ccc(S(=O)(=O)N2CCOCC2)cc1C(=O)Nc1ccc(N2CCCCCC2)cc1	.	0.9	.	.	12.1	i	8.2	16.6	0.5
14	CCCC(=O)Nc1ccc2c(c1)C(=O)N(C)C[C@@H](OC)[C@H](C)CN(Cc1cccc(F)c1)[C@@H](C)CO2	.	.	.	.	1.3	i	-4.8	-15.0	4.4
15	COc1cc(OC)c(OC)cc1CNC(=O)c1cc(S(=O)(=O)N2CCOCC2)ccc1F	.	1.3	.	0.66	-0.4	i	6.2	1.0	-1.4
16	NC(=O)CC(NC(=O)c1cccc(Br)c1)c1ccc(NC2CCN(Cc3ccccc3)CC2)c([N+](=O)[O-])c1 (centres undefined)	-5.2	1.1	.	0.681	13.0	i	-14.9	-50.1	15.6

Single values from the results shown:
Reading of COc1ccc(S(=O)(=O)N2CCOCC2)cc1C(=O)Nc1ccc(N2CCCCCC2)cc1 in Ecoli rRNA inh: 8.2
Reading of COc1cc(OC)c(OC)cc1CNC(=O)c1cc(S(=O)(=O)N2CCOCC2)ccc1F in Ecoli rRNA inh RFP: -1.4

Remaining list, next part.
no.	structure	ALR inh	HNF4A DNA FP	Vif TR-FRET	Ecoli growth	AF4-AF9 inh	FGF22 binding	Ecoli rRNA inh	Ecoli rRNA inh OD600	Ecoli rRNA inh RFP
17	O=C(Oc1cccc(N2C(=O)CCC2=O)c1)C1CC(=O)N(c2ccc(Br)cc2)C1 (centres undefined)	5.3	3.0	19.8%	0.636	.	.	.	.	.
18	CCn1c(SCC(=O)Nc2nc(C)c(C(=O)OC)s2)nnc1C(C)C	-9.4	0.4	3.2%	0.783	.	.	.	.	.
19	CCC(=O)Nc1cc(C(=O)O)ccc1S(=O)(=O)c1ccc(C)cc1	-3.1	-13.1	16.9%	0.619	-6.2	i	19.6	1.1	-4.3
20	O=C(COC(=O)C12CC3CC(CC(C3)C1)C2)NCc1ccco1	1.0	0.9	?	0.689	.	.	.	.	.
21	COc1ccc2c3c(n(C)c2c1)[C@@H](CO)N(C)CC31CN(C(=O)c2ccc3c(c2)OCO3)C1	.	.	.	.	-3.9	i	1.9	2.9	-0.8
22	COc1cccc2sc(N3CCN(C(=O)c4ccco4)CC3)nc12	-9.4	0.1	-2.8%	0.695	3.5	i	-14.9	-23.9	1.4
23	CC(C)NC(=O)Nc1ccc2c(c1)CC(=O)N([C@@H](C)CO)C[C@H](C)[C@@H](CN(C)S(=O)(=O)c1cn(C)cn1)O2	.	.	.	.	-2.6	i	0.5	5.6	0.5
24	COc1ccc(-c2cnc3c(c2)C(=O)N([C@H](C)CO)C[C@H](C)[C@H](CN(C)Cc2ccccc2)O3)cc1	.	.	.	.	1.5&1.8	i	1.7	6.9	-1.8
25	COc1ccccc1NCCC(=O)OCC(=O)Nc1ccccc1F	99.2*	-0.9	.	0.641	-0.9	i	.	.	.
26	O=C(COc1ccc(Br)cc1Br)NNC(=O)c1cccs1	.	-0.3	.	0.7	0.4	.	-3.1	-0.4	0.8
27	NCC[C@H]1CC[C@H](NC(=O)C2CCCCC2)[C@@H](CO)O1	.	.	.	.	1.3	i	2.9	13.0	-4.0
28	Nc1nc(Sc2ncccc2[N+](=O)[O-])n[nH]1	-12.1	2.4	8.3%	0.635	7.9	i	5.1	3.2	1.5
29	C[C@@H]1CN([C@H](C)CO)C(=O)c2cccc(NC(=O)C3CCOCC3)c2O[C@@H]1CN(C)C(=O)Nc1ccc(C(F)(F)F)cc1	.	.	.	.	-2.7	i	-3.0	-9.2	-0.6
30	COc1cc(NC(=O)CSc2nc3c(c(=O)n(C)c(=O)n3C)n2C)cc(OC)c1	-7.6	0.7	7.7%	0.684	-0.4	i	4.2	8.4	0.1
31	NC(=O)CSc1nnc(Cn2cnc3ccccc32)o1	-9.5	1.0	.	0.642	0.0	.	14.0	12.4	2.9
32	O=C(O)c1ccc(COc2ccc3ccccc3c2/C=C2/NC(=O)N(c3ccccc3)C2=O)cc1	40.9	0.5	24.9%	0.702	.	.	.	.	.
33	CC(=O)Nc1ccc(NC(=O)C/C(C)=N/NC(=O)c2cccc3ccccc23)cc1	4.6	0.6	.	.	0.3	i	3.2	0.1	1.2
34	COCC(=O)Nc1nc2n(n1)C(c1ccc(OC)cc1)CC(c1ccc(OC)cc1)N2 (centres undefined)	.	1.2	-4.6%&25.8%	0.642	.	.	.	.	.
35	COc1ccc(CCNC(=O)COC(=O)c2cc(S(=O)(=O)N3CCOCC3)ccc2C)cc1OC	-3.0	2.3	1.9%	0.702	-2.5	i	1.2	2.0	4.1
36	c1cncc(-c2nc(NCCCn3ccnc3)c3ccccc3n2)c1	-3.4	-1.9	4.0%	0.68	1.7	i	-11.8	-6.8	-1.4
37	Fc1ccccc1C1CCN(Cc2nc(COc3ccccc3)no2)C1 (centres undefined)	.	3.3	0.1%	0.607	4.1	i	-16.1*	-12.2*	5.8*
38	COc1ccc(N2CCN(C(=O)c3ccc(CS(=O)Cc4ccc(Cl)cc4)o3)CC2)cc1 (centres undefined)	-0.7	5.9	.	0.701	4.6	i	-2.7	-21.1	2.5
39	CC1=C(C)CS(=O)N(S(=O)(=O)c2ccccc2)C1 (centres undefined)	98.8*	1.1	20.6%	0.718	.	.	.	.	.
40	CN(CC(=O)Nc1ccccc1Br)C(=O)CNC(=O)C1CCCCC1	-0.7	-0.2	22.5%	0.7	-0.1	i	6.7	12.8	-2.8
41	COC(=O)CCC(=O)Nc1ccc(Br)cc1	-6.0	-0.5	25.5%	0.77	.	.	.	.	.
42	O=C(COC(=O)C1=NN(c2ccccc2)C(=O)CC1)NCc1ccccc1Cl	.	-0.9	.	0.692	-0.3	i	1.9	0.3	-2.0
43	C[C@@H]1CCCCO[C@@H](CN(C)C(=O)Nc2ccccc2)[C@@H](C)CN([C@H](C)CO)C(=O)c2cc(NS(=O)(=O)c3cn(C)cn3)ccc2O1	.	.	.	.	0.3	i	5.3	11.6	-2.1
44	CN(CCN1CCOCC1)C(=O)CC1C(=O)NCCN1Cc1ccccc1F (centres undefined)	-10.3	1.8	.	0.682	-0.9	i	7.2	19.0	1.3
45	Cc1cccc(OCC(=O)Nc2ccccc2F)c1	-35.6	0.4	.	0.698	-0.7	i	3.3	5.6	1.6
46	CC1=C(C(=O)OCC(C)C)C(c2cccs2)NC(=S)N1 (centres undefined)	0.6	-0.3	.	0.677	.	.	.	.	.
47	O=C(C[C@H]1CC[C@H](NS(=O)(=O)c2ccccc2)[C@H](CO)O1)NCc1ccc(Cl)c(Cl)c1	.	.	.	.	-2.6	i	-12.3	-28.9	4.9
48	CCC(=O)Nc1ccc2c(c1)C(=O)N(C)C[C@@H](OC)[C@@H](C)CN[C@@H](C)CO2	.	.	.	.	-1.2	i	1.1	-2.2	-3.2
49	COc1cc2c(cc1O)C(SC)=NC(C)(C)C2	72.9	2.4	21.1%	0.737	.	.	.	.	.
50	C[C@H](NS(=O)(=O)c1ccc(Cl)cc1)C(=O)OCC(=O)NC(=O)Nc1ccc2c(c1)OCCO2	-23.4	-3.2	6.3%	0.696	.	.	.	.	.
51	O=C(CCCN1CCc2[nH]c3ccc(F)cc3c2C1)c1ccc(F)cc1	-4.4	0.7	0.4%	.	8.8	i	-28.2*	-21.9*	3.3*
52	Cc1c([N+](=O)[O-])cc(C(=O)NCc2ccc(F)cc2)cc1[N+](=O)[O-]	-5.8	-1.9	-0.7%	0.681	-1.3	i	4.3	2.6	1.8
53	O=C(Nc1ccccc1)c1ccccc1NC(=O)C(F)(F)F	0.6	-2.7	0.5%	0.651	-4.4	i	-15.6	-6.9	-4.6
54	COc1ccc(C2=Nc3ccccc3C2(O)CCN2C(=O)c3ccccc3C2=O)cc1 (centres undefined)	.	3.6	-2.6%	.	2.1	i	-1.9	-13.1	0.9
55	CCCNc1ccc(C(=O)OCC)cc1[N+](=O)[O-]	-26.9	3.1	.	0.703	-3.3	i	-30.5*	-0.2*	-8.2*
56	CCN(CC)C(=O)COC(=O)c1cc(-c2ccc(OC)cc2)nc2ccccc12	2.4	-2.3	18.2%	0.681	.	.	.	.	.
57	COc1ccccc1NC(=O)N1CC[C@H]2[C@@H]1c1cc(-c3ccc(F)cc3)ccc1N(C)[C@H]2CO	.	.	.	.	1.1	i	1.9	3.3	7.9
58	Nc1nnc(-c2ccccc2F)s1	-4.9	1.1	0.2%	0.663	-3.2	i	9.9	4.9	-1.4
59	Cc1ccc(C(=O)CC(SCC(=O)O)c2ccc([N+](=O)[O-])cc2)cc1 (centres undefined)	98.6*	2.1	16.8%	0.694	-1.3	i	-0.1	3.2	-0.7

Compound activity (PubChem BioAssay)
